Screening data from PubChem.
Beta apoptosis: inhibitors of cytokine-induced beta cell apoptosis, primary screen, luminescence | INS-1E cytokine-induced death, ATP luminescence, 48 h; percent of positive-control rescue, neutral wells zero | protection from apoptosis, % (no concentration beside the values) | hit rate 0.8% among 300,000;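 active means all replicates at 75% or more, or half of them and the mean; inconclusive means half reach 75% but not the mean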;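 further: 0% = cytokine-treated negative control wells and 100% = positive control rescue; higher means more ATP so stronger rescue from cytokine killing; wells of about 40 µL received 100 nL stock; the first replicate is given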
A1 inh: caspase 3/7 activation in MEF A1-2A-BIM cells, primary screen, A1 inhibitor project, cell-based, luminescence, HTS; Caspase-Glo 3/7 luminescence, 3 h; percent of clofoctol response, vehicle zero; caspase activation, % (test concentration not listed); hit rate 0.066% among 330,000;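 active means over half of replicate activation scores above 10%, or exactly half above 10 with the replicate mean above 10; inconclusive means replicate mean below 10 yet half the replicates above 10; inactive means over half of replicates below 10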;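 further: wells of about 30 µL received 50 nL stock; many hits fall short of the cut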
AF4-AF9 inh: inhibitors of AF4 peptide binding to AF9, primary screen, biochemical, AlphaScreen, biotin-AF4 peptide, FLAG-AF9, single point | inhibition, % at 10 µM | hit rate 0.47% among 350,000 | AID 651704, 2012;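 active means every replicate reaching a set inhibition limit, whatever the replicate mean, cut at about 25% in these data; inconclusive means mean inhibition reaches that limit but some replicates miss it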;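 further: 0% = plate neutral control median and 100% = total signal loss; the record names both 10 and 1 µM as test concentration; the first replicate is given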
Target sequence (P42568 whole entry, looked up): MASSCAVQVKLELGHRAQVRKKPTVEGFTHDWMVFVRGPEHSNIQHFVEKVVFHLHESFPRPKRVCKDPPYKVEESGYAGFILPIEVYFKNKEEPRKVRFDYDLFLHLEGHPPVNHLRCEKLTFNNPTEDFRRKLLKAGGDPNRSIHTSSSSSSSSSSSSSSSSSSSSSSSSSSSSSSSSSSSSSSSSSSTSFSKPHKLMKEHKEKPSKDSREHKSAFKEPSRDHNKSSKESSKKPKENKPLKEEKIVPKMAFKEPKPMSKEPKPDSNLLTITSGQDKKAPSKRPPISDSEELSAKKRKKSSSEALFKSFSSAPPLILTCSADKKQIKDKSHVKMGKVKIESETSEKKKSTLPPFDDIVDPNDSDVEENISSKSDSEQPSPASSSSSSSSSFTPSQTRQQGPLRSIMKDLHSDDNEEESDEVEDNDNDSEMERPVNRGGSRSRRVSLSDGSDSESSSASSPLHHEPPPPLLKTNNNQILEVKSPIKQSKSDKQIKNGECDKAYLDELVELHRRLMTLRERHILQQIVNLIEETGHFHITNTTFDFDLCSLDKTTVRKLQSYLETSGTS
Calb FLC: C. albicans growth inhibition with fluconazole, primary screen, CaCi-2 strain, Alamar Blue fluorescence | C. albicans CaCi-2 (fluconazole-resistant clinical isolate) + fluconazole, 48 h | growth inhibition, % (concentration not given with the values) | hit rate 0.57% among 300,000;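 active means most replicates above 75%; inconclusive means exactly half above 75%; inactive means most below 75%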;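 further: all wells also contain fluconazole at 8 µg/ml as a sub-toxic cotreatment; 0% = median of DMSO wells and 100% = median of geldanamycin control wells; wells of about 8 µL received 7.5 nL stock; the first replicate is given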
RanGTP-Imp inh: inhibitors of RanGTP-importin-beta interaction, primary screen, biochemical, FRET, CFP-Ran, YFP-importin-beta, homogeneous | Ran GTPase (GTP-bound) - importin-beta complex | cell-free CFP-Ran/YFP-importin-beta FRET ratio | inhibition, % (test concentration not listed) | hit rate 1.1% among 300,000;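 active means most replicates above 15%; inconclusive means exactly half above 15%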;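 further: 0% = DMSO wells and 100% = Ran loaded with GDP instead of GTP; wells of about 40 µL received 100 nL stock; the first replicate is given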
Vif A3G: inhibitors of Vif binding to APOBEC3G peptide, primary screen, biochemical, TR-FRET, GST-Vif 1-94, biotin-A3G peptide, dose response retest (AID 1117319). Virion infectivity factor (Human immunodeficiency virus type 1 group M subtype B (isolate …. TR-FRET GST-Vif / biotin-A3G peptide binding; higher % means a stronger effect; test concentration not given here; strong numbers were not always called active. hit rate 0.57% among 260,000. inhibition, %, or IC50 in µM where a hit was titrated;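 active means above the screen mean plus three standard deviations and confirmed in dose response; inconclusive means results disagree or hit not tested in dose response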;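 further: Vif residues 1-94 fused to GST binding biotinylated APOBEC3G peptide 110-148; 0% = full assay without inhibitor and 100% = GST in place of GST-Vif; retest series ran down from 100 µM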
T cruzi inh: inhibitors of intracellular T. cruzi growth, primary screen, luminescence, NIH3T3 host cells. inhibition, % (no concentration beside the values). hit rate 1.4% among 300,000. T. cruzi beta-gal in NIH3T3, 90 h;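 active means mean inhibition across valid replicates above about 55%, limit read from the data; inconclusive means mean below that limit but half or more replicates reach it; inactive means mean below it, under half of replicates reach it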;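 further: signal also drops with host cell toxicity which is not excluded here; 0% = plate median of DMSO wells and 100% = zero luminescence signal; higher percent means less beta-gal luminescence so fewer parasites; stock transfer was 50 nL into about 50 µL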
rRNA inh HTS: reduced GFP signal of wild-type E. coli, primary screen, bacterial rRNA inhibitor project, GFP/RFP fluorescence, OD600, single point | E. coli WT GFP vs humanized-ribosome RFP mutants, 24 h; hits give low values; DMSO median 0, no signal -100 | GFP signal change (wild-type ribosome), % (no concentration beside the values) | hit rate 1.6% among 350,000 | AID 720706, 2013;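 active means significant combined selectivity score with lowered wild-type GFP, culture density cut under 30%, mutant RFP and density less affected; inactive means any of these conditions unmet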; further: one replicate is shown; some compounds called inactive have numbers as strong as hits
rRNA inh HTS OD600: second read-out of rRNA inh HTS, no call of its own (marks repeat the call); OD600 change, %; measured here: OD600 growth;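 optical density of the mix in the first replicate; 0 = DMSO median and -100 = no signal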
rRNA inh HTS RFP: second read-out of rRNA inh HTS, no call of its own (marks repeat the call); RFP signal change, %; measured here: RFP humanized mutant strains;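 first replicate; 0 = DMSO median and -100 = no signal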
Active calls of the source: *; ? = inconclusive; / = not tested or not shown. Some of the compounds tested; the hit share may differ from the screen's.

SMILES	Beta apoptosis	A1 inh	AF4-AF9 inh	Calb FLC	RanGTP-Imp inh	Vif A3G	T cruzi inh	rRNA inh HTS	rRNA inh HTS OD600	rRNA inh HTS RFP
CCc1ccc(N2CC(C(=O)N/N=C/c3ccccc3)CC2=O)cc1 (stereo not given)	1.4	0.4	-4.3	-21.3	0.0	?	12.1	-3.4	-2.8	-0.3
O=C(CSc1ccc2nnc(CCNC(=O)c3ccccc3)n2n1)NCCc1ccccc1	/	-1.4	0.4	-4.0	-2.7	-0.4%	3.8	4.5	9.8	1.5
O=C(NC1CCCC1)c1ccc(CN2CCOCC2)cc1	-0.1	0.1	/	-1.2	6.8	24.4%	6.5	/	/	/
C=CCn1c(Sc2ncc([N+](=O)[O-])s2)n[nH]c1=O	60.3	-0.5	1.2	10.1	-0.7	13.7%	15.3	-28.4*	-10.3*	-4.3*
COc1ccccc1Nc1nnc(SCC(=O)NC2CCCC2)s1	-4.5	-1.6	-4.3	/	/	-10.8%	/	-0.1	9.0	-3.3
COc1ccc(/C=N\NC(=O)c2cc(OCC(F)(F)F)ccc2OCC(F)(F)F)cc1	-1.5	0.6	/	14.4	0.1	0.8%	11.4	/	/	/
CSc1ccccc1C(=O)N(CC1CCCO1)c1c(N)n(Cc2ccccc2)c(=O)[nH]c1=O (stereo not given)	-6.2	0.5	-6.8	8.3	-1.2	2.5%	-1.9	4.3	2.7	-1.2
O=C(CN1CCN(S(=O)(=O)c2ccccc2)CC1)N1CCCCC1	7.7	-0.4	-1.3	/	/	-10.6%	/	23.2	17.2	5.6
COC(=O)C1CCN(CC(=O)Nc2ccc3c(c2)OCCO3)CC1	2.6	1.4	2.4	/	/	3.6%	/	9.6	10.5	-0.5
Cc1ccc(/C=C/c2nnc(-c3cccs3)o2)cc1	-1.5	-0.4	/	-14.8	6.2	4.6%	8.2	/	/	/
Cc1ccc(NC(=O)c2cc(-c3ccccc3)nn2-c2ccccc2)cc1	2.3	-0.9	3.8	24.5	-2.8	7.8%	12.6	5.0	5.5	4.4
COc1cc(C(=O)OC2CSCC2NC(=O)c2ccccc2)cc(OC)c1OC (stereo not given)	-4.4	0.9	0.5	-1.8	-3.6	/	19.3	-6.2	-5.8	-0.3
O=C(NCc1ccccn1)c1cccn1-c1ncc(C(F)(F)F)cc1Cl	25.9	0.7	2.0	2.1	0.4	-7.2%	-6.5	6.2	9.6	0.5
S=C(NCc1cccc(Cl)c1)NC1CCCCC1	0.5	-0.6	/	-4.6	4.5	-1.5%	-8.6	/	/	/
COc1ccc2cc(C(=O)Nc3ccc(O)cc3)sc(=O)c2c1OC	-6.3	-0.4	-1.4	-21.4	8.9	65.2%	-24.9	-15.6	-16.4	-11.1
N#Cc1nc(-c2ccc(F)cc2)oc1N1CCCCC1	-3.4	-0.8	3.9	12.5	1.1	30.2%	4.6	-3.9	-7.4	-0.2
COc1ccccc1CNC(=O)/C=C/c1ccc(S(=O)(=O)NCc2ccco2)cc1	9.3	0.4	/	-0.3	4.8	-1.6%	-13.2	/	/	/
COc1ccccc1NC(=O)c1ccc(S(=O)(=O)N(C)c2ccccc2OC)cc1	-1.9	-0.4	-11.3	/	/	/	/	-11.3	-14.9	-3.5
O=C(NCCc1ccccc1)C1CCN(C(=O)c2ccc([N+](=O)[O-])cc2)CC1	3.5	0.5	-3.1	-4.1	?	7.3%	0.5	10.0	6.9	-3.6
Cc1cccc(-n2nnc(C(=O)NC3CCCc4ccccc43)c2N)c1 (stereo not given)	2.8	0.1	/	42.0	3.1	4.2%	-3.3	/	/	/
CC(C)c1ccc(OCC(=O)NCc2ccco2)cc1	-8.6	-0.5	/	8.1	-4.1	-1.9%	-11.0	/	/	/
Cc1ccc(NC(=O)CCn2c(=O)[nH]c3ccsc3c2=O)cc1C	-0.4	0.5	8.6	-6.7	-0.6	/	6.0	-2.1	0.6	-2.1
CCOC(=O)/C=C/C(=O)Nc1nccs1	-9.8	0.0	5.7	23.0	4.3	/	-15.8	8.1	14.0	-4.3
CN(C)S(=O)(=O)c1cc(NC(=O)COC(=O)CCSc2ccc(Cl)cc2)ccc1Cl	-0.5	-0.5	/	11.8	-1.9	8.4%	2.4	/	/	/
Cc1ccc(CN(Cc2cccnc2)C(=S)Nc2cccc(Cl)c2C)cc1	-0.4	0.8	-3.6	0.3	0.4	-0.3%	3.0	17.4	6.5	14.0
NS(=O)(=O)c1ccc(N2N=C(c3ccccc3)CC2c2ccc(F)cc2)cc1 (stereo not given)	6.9	1.5	/	27.9	0.0	31.6%	38.5	/	/	/
O=C(CSc1nnc(-c2ccc(C(F)(F)F)cn2)s1)c1ccccc1	5.3	-0.3	-5.0	-1.3	2.4	-52.0%	-3.7	4.8	3.0	-1.2
Cc1ccc(NC(=O)C(=O)NCC2CCCO2)cc1 (stereo not given)	-1.2	-0.4	-0.9	-4.9	-4.1	8.0%	-2.8	8.7	8.7	2.8
COc1cc2cc(CCCOC(=O)CCCC(=O)O)oc(=O)c2cc1OC	-7.3	0.1	0.8	/	/	/	/	-18.6	-9.3	0.6
CCN(CC(=O)NCc1ccc(Cl)cc1)C(=O)C(C)Sc1ccccc1 (stereo not given)	-3.2	2.3	0.0	10.2	2.4	/	4.6	-10.3	-12.8	-1.2
O=Cc1ccccc1OS(=O)(=O)c1ccccc1	3.2	-0.5	/	6.3	?	-1.5%	-5.4	/	/	/
CC1=NN(c2ccccc2)C(=O)C1C(=O)c1cc([N+](=O)[O-])cc([N+](=O)[O-])c1 (stereo not given)	-1.0	1.2	1.6	-10.2	4.3	/	0.1	-4.1	1.6	-4.0
COc1ccc(Cn2cc(F)c(=O)n(CCC(C)C)c2=O)cc1[N+](=O)[O-]	-1.0	0.1	/	1.4	1.3	5.1%	7.6	/	/	/
O=Cc1ccc(-c2ccccc2OC(F)(F)F)o1	-10.5	0.8	/	-7.3	1.0	-0.4%	-23.5	/	/	/
COc1cc(S(=O)(=O)NCc2ccccn2)ccc1Cl	/	0.5	-12.7	-9.7	-5.8	?	-4.4	2.6	14.0	0.8
Nc1cc2nn(-c3ccccc3)nc2cc1Cl	/	/	1.7	27.9	-4.1	?	-14.5	0.7	4.9	15.2
CCOC(=O)c1ccc(Oc2c(C)oc3c(CN4CCN(C)CC4)c(O)ccc3c2=O)cc1	-2.3	-0.2	/	-2.9	-2.2	31.5%	?	/	/	/
c1csc(-c2nnc3ccccn23)c1	0.5	0.4	/	6.8	?	-1.8%	-2.7	12.8	15.0	-1.7
NS(=O)(=O)c1ccc(NC(=S)NC2CC2)cc1	-1.5	-0.1	-6.2	26.3	?	?	-2.5	4.8	8.4	2.7
CCCC(CNC(=O)COC(=O)C1=NNC(=O)CC1)c1ccc(Cl)cc1Cl (stereo not given)	10.2	0.4	-1.0	/	/	-3.5%	/	1.3	-28.5	-6.7

A different layout for part of the listing above.
Second line of a record – Beta apoptosis, A1 inh, AF4-AF9 inh, Calb FLC, RanGTP-Imp inh, Vif A3G, T cruzi inh, rRNA inh HTS, rRNA inh HTS OD600, rRNA inh HTS RFP
COc1ccc(Cn2cc(F)c(=O)n(CCC(C)C)c2=O)cc1[N+](=O)[O-]
 : -1.0, 0.1, /, 1.4, 1.3, 5.1%, 7.6, /, /, /
O=Cc1ccc(-c2ccccc2OC(F)(F)F)o1
 : -10.5, 0.8, /, -7.3, 1.0, -0.4%, -23.5, /, /, /
COc1cc(S(=O)(=O)NCc2ccccn2)ccc1Cl
 : /, 0.5, -12.7, -9.7, -5.8, ?, -4.4, 2.6, 14.0, 0.8
Nc1cc2nn(-c3ccccc3)nc2cc1Cl
 : /, /, 1.7, 27.9, -4.1, ?, -14.5, 0.7, 4.9, 15.2
CCOC(=O)c1ccc(Oc2c(C)oc3c(CN4CCN(C)CC4)c(O)ccc3c2=O)cc1
 : -2.3, -0.2, /, -2.9, -2.2, 31.5%, ?, /, /, /
c1csc(-c2nnc3ccccn23)c1
 : 0.5, 0.4, /, 6.8, ?, -1.8%, -2.7, 12.8, 15.0, -1.7
NS(=O)(=O)c1ccc(NC(=S)NC2CC2)cc1
 : -1.5, -0.1, -6.2, 26.3, ?, ?, -2.5, 4.8, 8.4, 2.7
CCCC(CNC(=O)COC(=O)C1=NNC(=O)CC1)c1ccc(Cl)cc1Cl (stereo not given)
 : 10.2, 0.4, -1.0, /, /, -3.5%, /, 1.3, -28.5, -6.7

Following part:
SMILES	Beta apoptosis	A1 inh	AF4-AF9 inh	Calb FLC	RanGTP-Imp inh	Vif A3G	T cruzi inh	rRNA inh HTS	rRNA inh HTS OD600	rRNA inh HTS RFP
Cc1cc2ncn(S(=O)(=O)N3CCOCC3)c2cc1C	/	0.0	/	4.6	-1.1	-1.0%	-13.1	/	/	/
CCCOc1ccc(Cl)cc1CN1CCOCC1	-5.2	0.0	/	5.0	-2.2	17.9%	-6.9	/	/	/
COc1ccc(C(C(=O)NC2CCCC2)N(C(=O)CNC(=O)c2ccco2)c2cccnc2)cc1 (stereo not given)	-1.2	-0.4	0.9	-3.2	0.1	/	7.3	-0.2	-2.4	-3.9
CCCN1C(=O)C(NC(C)=O)c2cc(OC)ccc21 (stereo not given)	3.1	0.7	/	37.1	6.1	0.1%	6.3	/	/	/
Cc1ccccc1C(=O)N1CCC(C(=O)NCCc2ccc(S(N)(=O)=O)cc2)CC1	-6.5	-0.3	0.9	7.0	-2.6	-1.1%	4.1	7.3	4.0	-1.1
Cc1c(N=Cc2ccc(-c3ccc(Cl)cc3)o2)c(=O)n(-c2ccccc2)n1C	-1.5	0.2	/	-9.9	-0.1	-7.7%	-13.5	/	/	/
Fc1ccc(Oc2ccc3nnc(C(F)(F)F)n3n2)cc1	-5.4	1.0	0.8	-13.9	2.4	-7.5%	-12.3	3.0	14.4	0.5
